Source: PubChem BioAssay
2A Renilla = Primary qHTS Assay for Foot and Mouth Disease Virus Antivirals against NCGC Sytravon and CBC Compound Libraries: Renilla Luciferase Signal | HEK cells with a luciferase reporter of 2A StopGo recoding | Potency, µM (top dose mostly 57.5 µM), inactives show top-dose signal change, negative = less light | 120,000 tested, 0.32% active; active means well fitted falling curve with a large enough effect; inconclusive means small, poorly fitted or top-dose-only effect; inactive means no such curve, though single readings can be large or run the other way; further: nearly all actives have a fitted effect of over 55% in size; overnight with compound
2A firefly = Primary qHTS Assay for Foot and Mouth Disease Virus Antivirals against NCGC Sytravon and CBC Compound Libraries: Firefly Luciferase Signal; HEK cells with a luciferase reporter of 2A StopGo recoding; Potency, µM (titrated, usually from 57.5 µM), for the others: top-dose signal change, negative = less light; 120,000 tested, 0.23% active; AID 1745856, 2022; active = well fitted falling curve with a large enough effect; inconclusive = small, poorly fitted or top-dose-only effect; inactive = no such curve, though single readings can be large or run the other way; further: nearly all actives have a fitted effect of over 60% in size; overnight with compound
* hit, by the source's call; ? = inconclusive; [ ] = another dose, or the depositor's remark. On the % scale 0 is the no-effect control and ±100 the full control effect; potency means the concentration at half of the fitted maximal effect.

SMILES | 2A Renilla | 2A firefly
CC1=C(C(=O)Nc2ccccc2C)C(c2ccccn2)n2ncnc2N1 (stereo not drawn) | -7% | -7%
COc1ccc(NC(=O)Cc2c(Cl)cccc2Cl)cc1OC | 34%[activator] | 46%[activator]
COc1ccc2c(c1)Cc1sc(NC(=O)c3ccc(Cl)cc3)nc1-2 | 36%[activator] | 29%
Cc1cc(C)c2c(=O)cc(C(=O)N(Cc3cccc(Cl)c3)C3CCS(=O)(=O)C3)oc2c1 (stereo not drawn) | 15% | 1%
Cc1nnc2ccc(SCC(=O)Nc3cccc(Cl)c3Cl)nn12 | 13% | 9%
COc1ccc(/C=C/c2nc3cc(C)ccc3s2)cc1OC | 6% | 149%[activator]
Cc1ccc(F)cc1S(=O)(=O)NC(C)CN1CCOCC1 (stereo not drawn) | 25% | -4%
CNC(=O)C1CCCN(c2nnc(C)c3c(C)n(-c4ccccc4)nc23)C1 (stereo not drawn) | -4% | 10%
CN(C)C(=O)CN(C)c1nc(-c2ccsc2)nc2ccccc12 | 8% | 14%
Cc1ccc(I)c(C(=O)NC(C)(C)C)c1 | -4% | 4%
CCOc1ccc(-n2c(=O)c3sc4ccccc4c3n(Cc3ccc(F)cc3)c2=O)cc1 | -5% | 24%
CCCOc1ccc(C(=O)Nc2c(C(=O)c3ccc(C)cc3)oc3ccccc23)cc1 | 2% | -1%
COc1ccc(C(=O)CCC(=O)Nc2cccc(C(C)=O)c2)cc1 | 20% | -9%
CCOc1ccc2nc(NC(=O)c3ccccc3)sc2c1 | -5% | 77%[activator]
COc1ccccc1NC(=O)C(=O)NCC(c1cccnc1)N1CCN(c2ccccc2F)CC1 (stereo not drawn) | -21% | -4%
CCOc1ccc(N(Cc2cc3cccc(C)c3[nH]c2=O)C(=O)C(C)C)cc1 | 34%[activator] | 26%
COc1cc(/C=C/C(=O)OC(C)C(=O)c2ccccc2)ccc1OCC#N (stereo not drawn) | 1% | -5%
CC(C)(C)c1ccccc1NC(=O)c1ccc(N2CCCCS2(=O)=O)cc1Cl | 2% | -6%
Cc1ccc(-c2cc(C(=O)N3CCOCC3C)n[nH]2)s1 (stereo not drawn) | 0% | 35%[activator]
CSc1nn(CCN(C)C)c2nc3sc4c(c3c(=O)n12)CCCCC4 | -15% | -9%

Sorted by heavy-atom count (largest number first): some entries from above
SMILES | 2A Renilla | 2A firefly
COc1ccccc1NC(=O)C(=O)NCC(c1cccnc1)N1CCN(c2ccccc2F)CC1 (stereo not drawn) | -21% | -4%
CCOc1ccc(-n2c(=O)c3sc4ccccc4c3n(Cc3ccc(F)cc3)c2=O)cc1 | -5% | 24%
CCCOc1ccc(C(=O)Nc2c(C(=O)c3ccc(C)cc3)oc3ccccc23)cc1 | 2% | -1%
CC(C)(C)c1ccccc1NC(=O)c1ccc(N2CCCCS2(=O)=O)cc1Cl | 2% | -6%
COc1cc(/C=C/C(=O)OC(C)C(=O)c2ccccc2)ccc1OCC#N (stereo not drawn) | 1% | -5%
CSc1nn(CCN(C)C)c2nc3sc4c(c3c(=O)n12)CCCCC4 | -15% | -9%
COc1ccc2c(c1)Cc1sc(NC(=O)c3ccc(Cl)cc3)nc1-2 | 36%[activator] | 29%
Cc1nnc2ccc(SCC(=O)Nc3cccc(Cl)c3Cl)nn12 | 13% | 9%
COc1ccc(/C=C/c2nc3cc(C)ccc3s2)cc1OC | 6% | 149%[activator]
CCOc1ccc2nc(NC(=O)c3ccccc3)sc2c1 | -5% | 77%[activator]
Cc1ccc(-c2cc(C(=O)N3CCOCC3C)n[nH]2)s1 (stereo not drawn) | 0% | 35%[activator]
Cc1ccc(I)c(C(=O)NC(C)(C)C)c1 | -4% | 4%

More structures.
SMILES | 2A Renilla | 2A firefly
COc1ccc(-c2nc(CSCC(=O)N3CCN(c4ccc(OC)cc4)CC3)c(C)o2)cc1 | -12% | -21%
Cc1[nH]nc2c1C(c1ccccc1Br)C1=C(COC1=O)N2 (stereo not drawn) | 2% | -8%
COc1ccc(C(=O)OCc2ccc(Cl)cc2)c(OC)c1OC | 7% | 147%[activator]
CCCSc1nc2c(c(=O)[nH]c(=O)n2C)n1CCc1ccccc1 | -1% | -9%
CCCC(=O)N1CCC(C(=O)NCC2(c3ccc(F)cc3)CC2)CC1 | 10% | -10%
CN1CCN(c2oc(COc3ccc(Cl)cc3Cl)nc2C#N)CC1 | -2% | 20%
CN(C)c1cccc(C(=O)OCc2ccc(C#N)cc2)c1 | 11% | 122%[activator]
CC(=O)c1cc(-c2ccccc2)n(CCC(=O)Nc2ccc(C)cc2C)c1C | -18% | 30%
c1ccc2c(CSC3=NCCCN3)cccc2c1 | -11% | -9%
O=[N+]([O-])c1c(Nc2ccccc2)cc(Cl)c2nonc12 | ? | ?
C(C#CCOC/C=C/c1ccccc1)#CCOC/C=C/c1ccccc1 | 6% | -4%
CCc1ccc(-c2nc3ccccc3c(C(=O)O)c2C)cc1 | -27% | 0%
COc1ccc(C(=O)C(C)OC(=O)c2cc(OC)cc(OC)c2)cc1 (stereo not drawn) | 16% | 6%
CCN(CC)C(=O)CSc1nc2cc3c(cc2c(=O)n1CCCCCC(=O)NCCc1ccc(OC)c(OC)c1)OCO3 | -14% | -19%
O=C(NCc1ccc2c(c1)OCO2)N1CCN(S(=O)(=O)c2ccccc2F)CC1 | 1% | -9%
CCc1ccccc1NC(=O)Cn1c(=O)n(CCCCCC(=O)NCc2ccc(C)cc2)c(=O)c2sccc21 | 85%[activator] | 3%
CCc1ccccc1NC(=O)Nc1c(C)n(C)n(-c2ccccc2)c1=O | -4% | -21%
CCN(CC)c1nc2ccccc2nc1C(=O)Nc1ccc(F)cc1Cl | 1% | 2%
CCOc1ccc(Nc2nc3ccccc3nc2NS(=O)(=O)c2cccc(Cl)c2)cc1 | 97%[activator] | 27%
CCOc1ccc(C(=O)c2c(N)c(-c3nc(-c4ccc5c(c4)OCO5)cs3)c3ccccn23)cc1 | -1% | 26%
CCOC(=O)C1CCCN(c2ncnc3c2nnn3C)C1 (stereo not drawn) | -15% | 12%
Cn1c(-c2ccccc2)c(C(=O)C(N)=O)c2ccccc21 | 13% | 2%
O=C(CCC(=O)c1ccc2c(c1)OCCO2)NC1CCCCC1 | -10% | 56%[activator]
CNCc1cc(Cl)cc(OC)c1OCc1ccccc1 | -2% | -16%
Oc1ccc2cccc(O)c2c1 | -2% | 69%[activator]
CC(C)(C)OC(=O)N1CCc2nc(N3CCN(c4ncccn4)CC3)ncc2C1 | 8% | -5%
COc1ccc(CCNC(=O)c2cc3c(s2)-c2c(C)cccc2OC3)c(OC)c1 | -2% | -5%
CC1CCN(c2oc(-c3ccc(F)cc3)nc2C#N)CC1 | 8% | 155%[activator]
Cc1ccc(-n2ncc(C(=O)N3CCN(c4ccc(Cl)cc4)CC3)c2C2CCN(C(=O)OC(C)(C)C)CC2)c(C)c1 | 2% | -17%
CCCCCCCNC(=O)CCC(=O)NCCC | 21% | 0%
CCN(CC)C(=O)C1CCN(c2nnc(C)c3c(C)n(-c4ccc(Cl)cc4)nc23)CC1 | -8% | -17%
O=C(NCc1ccc(F)cc1)c1ccc2c(c1)nnn2C1CCCC1 | -4% | 1%
COC(=O)c1ccccc1NC(=O)C(Cc1ccccc1)N1Cc2ccccc2C1=O (stereo not drawn) | 277%[activator] | -9%
CS(=O)(=O)N1CCCc2cc(C(=O)CSc3ccc(F)c(F)c3)ccc21 | -9% | 30%
CCOC(=O)C1CCN(C(=O)c2nn(-c3ccc(OC)c(Cl)c3)c(=O)c3c2c2ccccc2n3C)CC1 | -4% | -7%
CNS(=O)(=O)c1cc(-c2n[nH]c(=O)c3ccccc23)ccc1C | 235%[activator] | 43%[activator]
CCOC(=O)C(CCCCCC(NC(C)=O)(C(=O)OCC)C(=O)OCC)(NC(C)=O)C(=O)OCC | 2% | 18%
Cc1cccc(N2CCN(c3ncnc4c3c(-c3ccccc3)cn4-c3ccccc3)CC2C)c1 (stereo not drawn) | -15% | -11%
CCOc1ccccc1CNC(=O)c1ccc(NC(=O)N2CCSc3ncccc32)cc1 | -8% | 3%
COc1ccc(C)cc1NC(=O)c1cc2ccccn2n1 | -15% | 158%[activator]
Cc1cc(C)cc(NC(=O)Cn2c(=O)n(Cc3ccco3)c(=O)c3oc4ccccc4c32)c1 | -2% | -14%
CC1(C)CC(NC(=O)CCCc2ccccc2)CC(C)(C)N1 | 1% | 0%
CCNC(=O)CSc1nc(-c2ccccc2)c(-c2ccccc2)o1 | 11% | 8%
COc1cccc(OCC(=O)NC2CC(=O)N(c3cccc(OC)c3)C2)c1 (stereo not drawn) | 6% | ?
CC(=O)N1CCc2cc(S(=O)(=O)NC(CC(C)C)C(=O)NCCc3cccc(C)c3)ccc21 (stereo not drawn) | 79%[activator] | -14%
O=C(CCC(=O)c1cccs1)NCc1ccc(OCc2cccnc2)cc1 | 13% | 21%
CCN(CCCNC(=O)c1cc2cc3cc(OC)ccc3nc2s1)c1cccc(C)c1 | 5% | 93%[activator]
CCN(Cc1nc2cc(Cl)ccc2c(=O)[nH]1)C(=O)c1cc(Cl)c2c(c1)OCO2 | 1% | 8%
COc1cc(-c2noc(-c3ccc(N4CCN(C)CC4)c([N+](=O)[O-])c3)n2)cc(OC)c1OC | 5% | -4%
CCC(CC)c1nn2cc(-c3ccccc3)nc2s1 | 14% | 0%
The list goes on.
SMILES | 2A Renilla | 2A firefly
COC(=O)c1c(C)[nH]c(C(=O)C(C)OC(=O)c2cccc(Cl)c2Cl)c1C (stereo not drawn) | ? | ?
Cc1nc(-n2nc(C)c(Cc3ccccc3Cl)c2C)sc1C(=O)N1CCCCC1C (stereo not drawn) | 4% | -5%
CCOc1ccc(NC(=O)c2ccc3ccccc3n2)cc1OCC | -7% | 50%[activator]
CC1=C(Cc2cc3ccc(=O)oc3cc2O)CC(C)(C)CC1 | 4% | 17%
O=C1OC(C(=O)Nc2cccc3cccnc23)Cc2ccccc21 (stereo not drawn) | 11% | 170%[activator]
Cc1cc(CSc2ncccc2C(=O)Nc2ccnn2Cc2cccnc2)no1 | 26% | 10%
Cc1ccc(-c2noc(Cn3nc(C)c(S(=O)(=O)N4CCc5ccccc54)c3C)n2)cc1 | ? | ?
Cc1ccc(NC(=O)c2cc(S(=O)(=O)NCCC3=CCCCC3)ccc2F)cc1F | -10% | ?
CCc1cccc2c(C(=O)CN3CCN(CC(=O)NC4CC4)CC3)c[nH]c12 | -2% | 8%
COc1cc(C)ccc1OCc1cccc(C(N)=O)c1 | 36%[activator] | 203%[activator]
N#Cc1cc2c(cc1C(=O)c1cccs1)OCCO2 | 14% | 65%[activator]
CCN(CC(=O)NC(C)(C)C)C(=O)NCc1cccc(C(F)(F)F)c1 | -5% | 3%
CN(C)C(=O)c1cccc(NC(=O)c2ccc(-c3ccccc3)cc2)c1 | ? | -2%
CCCNC(=O)Cc1c[nH]c2ccccc12 | 7% | 8%
Cc1ccc(CNC(=O)Nc2cc(C(=O)NCc3cccc(F)c3)ccc2N2CCCC2)cc1 | 25% | 21%
COc1ccc(-c2c(NC(=O)c3cccc([N+](=O)[O-])c3)oc3ccccc3c2=O)cc1OC | -8% | -7%
CN(CC(=O)NC(=O)NCc1ccccc1)Cc1ccsc1 | -1% | 0%
Cc1ccc(CN2CCSc3ccc(C(=O)N4CCN(c5ccccc5)CC4)cc32)cc1 | -6% | -1%
COC(=O)c1ccc2c(=O)n3nc(Nc4cc(OC)ccc4OC)sc3nc2c1 | 9% | 38%[activator]
CCOC(=O)c1sc(-c2ccc3c(c2)OCO3)cc1NC(=O)c1cnccn1 | -14% | 0%
Cc1c(CC(=O)NCc2cccc(Cl)c2)c(=O)oc2c(C)c(O)ccc12 | 20% | 43%[activator]
Cc1ccc(C(=O)CSc2ncc(C(F)(F)F)cc2Cl)cc1 | 11% | 2%
CCCOc1ccc(NC(=O)CC2C(=O)N(c3ccccc3)C(=O)N2Cc2ccc(F)cc2)cc1 (stereo not drawn) | 83%[activator] | -26%
Cc1ccc(CS(=O)(=O)c2cn(CC(=O)N(C)c3ccccc3)c3ccccc23)cc1 | 38%[activator] | 30%[activator]
CC(C)c1noc(CN2CCC(c3nc4cc(Cl)ccc4o3)CC2)n1 | ? | ?
COC(=O)c1ccccc1NC(=O)Cn1ncc2c(C)n(Cc3ccc(F)cc3)c(C)c2c1=O | 0% | -10%
COC(=O)C1=C(C)N(C)C(=S)NC1c1ccc(C(C)C)cc1 (stereo not drawn) | -3% | 24%
Cc1ccc(S(=O)(=O)NCC(c2cccnc2)S(=O)(=O)c2cccs2)cc1 (stereo not drawn) | 143%[activator] | 33%[activator]
Cc1cc(-c2ccc(C)c(S(=O)(=O)N(C)c3ccc(C)c(C)c3)c2)on1 | ? | ?
CC(C)c1cccc(C(C)C)c1NC(=O)C1CC=CCC1 (stereo not drawn) | -6% | -4%
Nc1c(-c2nc(-c3ccccc3)no2)nnn1CC(=O)Nc1cccc(F)c1 | -7% | 4%
